High-throughput results as filed in PubChem BioAssay.
LANA-H2A inh = blocks KSHV LANA binding to histone H2A/H2B; hit rate 0.6% among 320,000; Q9QR71; inhibition, % (test concentration not listed); cell-free LANA-H2A/H2B peptide, fluorescence polarization; in the data active = inhibition mostly above about 10%, no sharp cut-off; inactive = mostly below about 6.7%;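 note: stock transfer was 7.5 nL into about 10 µL; 0% = median of vehicle wells and 100% = median of positive control wells; one replicate is shown; the record names a cut of 25% in any replicate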
rRNA inh HTS = inhibits bacterial ribosomal RNA function over humanized ribosomes; GFP signal change (wild-type ribosome), % (test concentration not listed); E. coli WT GFP vs humanized-ribosome RFP mutants, fluorescence, 24 h; active compounds read low; DMSO median 0, no signal -100; AID 720706; hit rate 1.6% among 350,000;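 active = significant combined selectivity score with lowered wild-type GFP, culture density cut under 30%, mutant RFP and density less affected; inactive = any of these conditions unmet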; note: one replicate is shown; some compounds called inactive have numbers as strong as hits
T cruzi repl = T. cruzi replication inhibition. inhibition, % (no concentration beside the values). T. cruzi beta-gal in NIH3T3, luminescence, 90 h. hit rate 1.4% among 300,000;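 active = mean inhibition across valid replicates above about 55%, limit read from the data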;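 note: signal also drops with host cell toxicity which is not excluded here; 0% = plate median of DMSO wells and 100% = zero luminescence signal; higher percent means less beta-gal luminescence so fewer parasites; stock transfer was 50 nL into about 50 µL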
Beta apoptosis = blocks beta cell apoptosis; INS-1E cytokine-induced death, ATP luminescence, 48 h; percent of positive-control rescue, neutral wells zero; hit rate 0.8% among 300,000; protection from apoptosis, % (no concentration beside the values); AID 435005;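 active = all replicates at 75% or more, or half of them and the mean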;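 note: 0% = cytokine-treated negative control wells and 100% = positive control rescue; higher means more ATP so stronger rescue from cytokine killing; wells of about 40 µL received 100 nL stock; the first replicate is given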
B2AR ag = activates human beta-2 adrenergic receptor causing internalization. P07550. Am2.2-beta2AR cells, FAP receptor internalization, flow cytometry; reference of the scale not given here. response, % (no concentration beside the values). hit rate 0.43% among 340,000. AID 504454;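 active = response above a set limit, near 3 SD of response in nonfluorescent compounds, cut at about 42% in these data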;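 note: stock transfer was 100 nL into about 11 µL; a reference agonist was the positive control; negative values mostly stem from fluorescent compounds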
Target sequence (P07550 whole entry, looked up): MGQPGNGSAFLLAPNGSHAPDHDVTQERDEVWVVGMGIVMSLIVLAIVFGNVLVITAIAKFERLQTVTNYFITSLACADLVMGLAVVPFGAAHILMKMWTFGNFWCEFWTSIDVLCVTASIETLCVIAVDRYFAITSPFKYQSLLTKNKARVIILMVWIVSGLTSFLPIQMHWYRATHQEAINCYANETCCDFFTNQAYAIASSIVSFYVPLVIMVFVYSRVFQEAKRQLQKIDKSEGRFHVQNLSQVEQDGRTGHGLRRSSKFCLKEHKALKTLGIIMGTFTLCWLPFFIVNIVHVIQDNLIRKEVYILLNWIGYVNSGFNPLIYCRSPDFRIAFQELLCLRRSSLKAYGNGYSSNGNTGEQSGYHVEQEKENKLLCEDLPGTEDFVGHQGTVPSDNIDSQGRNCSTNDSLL
ALR H2O2 inh = blocks human ALR sulfhydryl oxidase activity. inhibition, % (concentration not given with the values). purified ALR, DTT oxidation, H2O2 HRP-luminol luminescence. AID 485317. hit rate 3.8% among 290,000. P55789;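 active = mean and each replicate at 75% or more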;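 note: stock transfer was 7.5 nL into about 7.5 µL; 0% = neutral wells and 100% = wells with inactivated enzyme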
Target sequence (P55789 whole entry, looked up): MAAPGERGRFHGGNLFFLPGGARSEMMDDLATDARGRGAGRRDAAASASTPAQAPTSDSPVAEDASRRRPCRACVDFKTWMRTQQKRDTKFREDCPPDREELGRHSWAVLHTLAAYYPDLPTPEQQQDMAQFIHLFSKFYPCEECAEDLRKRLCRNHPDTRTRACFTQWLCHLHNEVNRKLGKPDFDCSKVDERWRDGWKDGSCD
Calb FLC = affects C. albicans growth with fluconazole | C. albicans CaCi-2 (fluconazole-resistant clinical isolate) + fluconazole, Alamar Blue growth, 48 h | growth inhibition, % (no concentration beside the values) | hit rate 0.57% among 300,000 | AID 1979;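 active = most replicates above 75%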;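 note: all wells also contain fluconazole at 8 µg/ml as a sub-toxic cotreatment; 0% = median of DMSO wells and 100% = median of geldanamycin control wells; wells of about 8 µL received 7.5 nL stock; the first replicate is given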
A1 inh = inhibitors of the anti-apoptotic protein A1, read as caspase activation | caspase activation, % (test concentration not listed) | AID 2462 | MEF A1-2A-BIM cells, Caspase-Glo 3/7 luminescence, 3 h; percent of clofoctol response, vehicle zero | hit rate 0.066% among 330,000;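 active = over half of replicate activation scores above 10%, or exactly half above 10 with the replicate mean above 10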;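 note: wells of about 30 µL received 50 nL stock; many hits fall short of the cut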
rRNA inh HTS OD600 = second read-out of rRNA inh HTS, no call of its own (marks repeat the call); OD600 change, %; measured here: OD600 growth;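 optical density of the mix in the first replicate; 0 = DMSO median and -100 = no signal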
rRNA inh HTS RFP = also measured in rRNA inh HTS; calls as there; RFP signal change, %; measured here: RFP humanized mutant strains;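 first replicate; 0 = DMSO median and -100 = no signal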
The depositor's hits bear a star; . = no result given. These rows are one share of the data; rates above refer to the full screens.

No. | compound | rRNA inh HTS RFP | A1 inh | Beta apoptosis | T cruzi repl | rRNA inh HTS OD600 | B2AR ag | Calb FLC | rRNA inh HTS | ALR H2O2 inh | LANA-H2A inh
1 | COc1ccccc1CC(=O)Nc1cc(Cl)ccc1O | . | 0.3 | 4 | 3 | . | 0 | 37 | . | 0 | -3.9
2 | Cc1ccc(N(C)C(=O)CN(C)S(=O)(=O)c2ccc3c(c2)n(C)c(=O)c(=O)n3C)cc1 | -1.8 | 0.6 | -4 | -9 | 4 | -3 | 15 | -4 | 0 | -0.9
3 | CCOc1c(C)cnc2c1c(=O)n(Cc1cccc(Cl)c1)c(=O)n2C | -1.6 | 0.4 | 5 | 14 | 9 | 2 | -1 | 15 | 1 | -6.1
4 | CC(C)n1c(=O)n(CC(=O)NCC2CCCO2)c(=O)c2c3c(sc21)COC(C)(C)C3 (stereo not drawn) | 0.7 | 0.6 | -1 | -3 | 5 | 4 | 2 | 15 | -4 | 3.0
5 | CCOC(=O)C(C)Sc1nnc(-c2ccccc2O)n1-c1ccc(C)cc1 (stereo not drawn) | . | -0.2 | -2 | -3 | . | 0 | 27 | . | . | -1.7
6 | Cc1ccc(CS(=O)Cc2ccc(C(=O)N3CCN(c4ccc(F)cc4)CC3)o2)cc1 (stereo not drawn) | -0.5 | 1.0 | -4 | 10 | -13 | -3 | -15 | -3 | 39 | 2.3
7 | CN1/C(=C\C(=O)CSc2nnc(N)s2)C(C)(C)c2ccccc21 | 47 | -1.2 | 28 | -6 | -29 | -9 | -44 | -21 | -5 | 8.5
8 | O=C(O)CCCCCNc1ncnc2ccc(Br)cc12 | 0.0 | 0.2 | . | -10 | -2 | -7 | 16 | 3 | -22 | 3.1

Quoted from above, compounds 7–8
No. | compound | rRNA inh HTS RFP | A1 inh | Beta apoptosis | T cruzi repl | rRNA inh HTS OD600 | B2AR ag | Calb FLC | rRNA inh HTS | ALR H2O2 inh | LANA-H2A inh
7 | CN1/C(=C\C(=O)CSc2nnc(N)s2)C(C)(C)c2ccccc21 | 47 | -1.2 | 28 | -6 | -29 | -9 | -44 | -21 | -5 | 8.5
8 | O=C(O)CCCCCNc1ncnc2ccc(Br)cc12 | 0.0 | 0.2 | . | -10 | -2 | -7 | 16 | 3 | -22 | 3.1

Continued:
No. | compound | rRNA inh HTS RFP | A1 inh | Beta apoptosis | T cruzi repl | rRNA inh HTS OD600 | B2AR ag | Calb FLC | rRNA inh HTS | ALR H2O2 inh | LANA-H2A inh
9 | CCOc1ccc(C(=O)C(C)OC(=O)C2CCN(c3ccc(C(F)(F)F)cn3)CC2)cc1 (stereo not drawn) | -1.8 | -0.4 | 3 | 43 | 6 | -1 | . | 11 | -16 | -1.4
10 | O=C1Nc2ccc([N+](=O)[O-])cc2C1(O)N1CCCCC1 (stereo not drawn) | . | -0.3 | 0 | -8 | . | 3 | 16 | . | 0 | -2.8
11 | CCOc1ccc(CCNC(=O)c2cnc(C)cn2)cc1OCC | -1.6 | 0.7 | -2 | -2 | 1 | 6 | 0 | 3 | -4 | 0.2
12 | O=C(Nc1ccc(N2CCCCC2)cc1)c1ccc([N+](=O)[O-])o1 | -1.0 | -6.9 | 37 | 4 | 12 | 27 | 16 | -4 | -2 | -3.3
13 | COc1ccccc1CNC(=O)[C@H](C)NC(=O)C1CCN(C(=O)[C@@H](N)C(C)C)CC1 | . | -0.6 | 0 | 10 | . | -1 | -2 | . | -20 | -2.4
14 | O=C(C1CCCCC1)N1CCCc2ccccc21 | . | 0.0 | -7 | 3 | . | -4 | -12 | . | . | .
15 | Cc1ccc(S(=O)(=O)Nc2ccccc2C=Nc2cccc(C)c2C)cc1 | -0.6 | 0.7 | 1 | -20 | -3 | 3 | -21 | 0 | -13 | 0.1
16 | CCCCOC(=O)c1ccc(NC(=O)CN2C(=O)NC3(CCCCCC3)C2=O)cc1 | -2.2 | -0.2 | -5 | . | -17 | 5 | . | -1 | -2 | -7.6
17 | COc1cccc(N2C(=O)N(c3ccccc3Cl)C3CS(=O)(=O)CC32)c1 (stereo not drawn) | . | 0.3 | . | 3 | . | -1 | -3 | . | -2 | -0.4
18 | COc1ccccc1N1CN(S(=O)(=O)c2ccc(C)cc2)c2nc3ccccc3nc21 | 4.9 | -0.3 | -1 | . | 30 | 5 | . | 1 | . | 5.0
19 | O=C(COc1ccccc1-c1ccccc1)N/N=C/c1cccnc1 | -7.1 | 0.1 | 4 | 0 | -49 | -2 | 2 | -35 | . | -1.3
20 | Cc1cccc(NC(=S)NC(C)C(c2ccccc2)N2CCN(C)CC2)c1C (stereo not drawn) | 3.2 | 0.1 | -1 | 16 | 8 | 5 | -14 | 0 | 5 | -3.4
21 | CCCc1nc(NCC2CCCO2)c2nnn(Cc3ccccc3)c2n1 (stereo not drawn) | . | 0.1 | 5 | 13 | . | -9 | 4 | . | 1 | -0.8
22 | O=C(O)COc1ccc(NC(=O)c2ccc3c(c2)C(=O)N(C2CCCCC2)C3=O)cc1 | 1.3 | -0.7 | -5 | -5 | -2 | -4 | -12 | -14 | . | 0.3
23 | C=CCN(c1ccccc1)S(=O)(=O)c1cccc(C(=O)NCC(c2ccccc2OC)N2CCCC2)c1 (stereo not drawn) | 5.2 | -0.4 | 2 | 3 | 3 | -1 | -5 | 4 | -15 | 1.3
24 | CS(=O)(=O)N(CC(=O)N1CCN(Cc2ccccc2)CC1)c1ccc2c(c1)OCCO2 | -8.6 | 1.3 | 3 | 2 | 9 | 2 | -7 | 3 | -5 | -4.4
25 | COc1ccc(NC(=O)Cc2c[nH]c3ccccc23)cc1S(=O)(=O)N1CCOCC1 | 9.6 | 1.6 | 4 | -4 | -25 | -3 | -2 | -22 | -2 | -0.1
26 | O=C(c1ccc(Cn2c(=O)[nH]c3ccccc3c2=O)cc1)N1CCN(c2ccccn2)CC1 | 2.4 | 0.9 | -3 | -4 | -13 | 0 | 12 | -10 | 1 | 2.3
27 | c1ccc2[nH]c(SCc3cn4ccccc4n3)nc2c1 | -1.1 | -0.4 | -3 | 6 | -2 | -7 | -10 | -5 | -5 | -1.0
28 | Cc1[nH]c2ccccc2c(=O)c1CN1CCCCC1 | . | -0.2 | 2 | -5 | . | -7 | 3 | . | -11 | -6.4
29 | O=C1C2CCCN2C(c2ccccc2)N1c1ccc(F)cc1 (stereo not drawn) | -3.5 | 1.4 | -2 | -12 | 10 | 2 | -3 | 0 | 1 | -0.2
30 | NC(=O)CCNC(=O)c1ccc(Cl)cc1 | . | -0.1 | -4 | -4 | . | -3 | 1 | . | -5 | -5.4
31 | COc1ccc(NC(=O)N(C2CCCCC2)C(C)c2cccnc2)c(OC)c1 (stereo not drawn) | . | -1.6 | 24 | 13 | . | -1 | 4 | . | 37 | -0.3
32 | C=C(CCC(=O)c1ccccc1)C(=O)c1ccccc1 | . | 1.5 | -1 | -43 | . | 10 | 38 | . | 97* | 9.0
33 | O=C(Nc1cnn(Cc2ccc(F)cc2)c1)c1cnccn1 | . | 0.2 | -6 | -1 | . | 0 | 4 | . | -5 | -5.9
34 | Cc1ccc2nc(NC(=O)C3CCCN3C(=O)OC(C)(C)C)sc2c1 (stereo not drawn) | -3.6 | 0.4 | -10 | 26 | -42 | -1 | 5 | -39 | 1 | 0.6
35 | COCCN(C(=S)Nc1c(C)cc(C)cc1C)C(C)c1cccnc1 (stereo not drawn) | 2.1 | 1.0 | -2 | 28 | 2 | -1 | -2 | 0 | -8 | 2.9
36 | O=C(COC(=O)c1cccs1)NCC1CCCCC1 | -0.4 | 0.3 | 3 | -6 | 12 | 3 | -32 | 11 | -2 | -1.3
37 | O=C(CCNC(=O)c1ccc(Cl)cc1)NC1CCCCCC1 | 0.4 | -0.3 | 0 | . | 1 | 2 | . | 3 | . | 3.6
38 | Cc1ccc(S(=O)(=O)N2CCN(S(=O)(=O)c3ccc4c(c3)OCCO4)CC2)cc1 | . | 0.4 | -5 | -20 | . | 5 | 6 | . | 0 | 2.5
39 | COc1ccc(C2=NN(C(=O)CCC(=O)O)C(c3cccs3)C2)cc1OC (stereo not drawn) | -0.5 | 0.5 | . | -3 | 4 | 5 | -2 | -1 | -12 | -3.1
40 | O=C(CCC(=O)N1CCSc2ccccc21)Nc1ccc(F)cc1 | -3.8 | 0.9 | -1 | 2 | -1 | -10 | 1 | 9 | -11 | -1.6
41 | Cc1ccc(Oc2nc(CN3CCOCC3)nc3sc4c(c23)CCC(C)C4)cc1C (stereo not drawn) | -4.9 | 0.4 | 0 | 23 | -6 | -3 | -3 | 9 | 70 | 2.9
42 | O=C(C1=C[C@@H](c2ccc(Br)cc2)C[C@@H](OCCCCO)O1)N1CCN(Cc2ccc3c(c2)OCO3)CC1 | 11 | -0.2 | -1 | 24 | -12 | -8 | -15 | -7 | . | 4.9
43 | COc1cccc(/C=C2\SC(=O)N(CCC(=O)NC3CCS(=O)(=O)C3)C2=O)c1 (stereo not drawn) | 0.2 | 0.4 | -4 | -3 | -4 | -1 | 9 | -2 | -1 | 1.4
44 | Cc1ccoc1C(=O)Nc1ccc2ccccc2c1 | -8.0* | -7.8 | 14 | -21 | -8.5* | -4 | -3 | -20* | -6 | -3.3
45 | CCOC(=O)c1[nH]c(COC(=O)CCCOc2ccccc2)c(C(=O)OCC)c1C | . | -0.1 | 3 | 15 | . | . | 5 | . | 2 | -1.5
46 | CCCO/N=C1/C(=O)N(c2ccccc2)c2ccccc21 | 3.1* | -0.3 | 0 | 8 | 7.0* | -7 | 52 | -38* | -18 | -5.5
47 | O=C(CSc1nnnn1-c1ccc(F)cc1F)Nc1ccccc1F | 3.5 | -0.9 | 0 | 0 | 12 | -5 | -9 | 5 | -8 | 9.9
48 | CCn1nccc1C(=O)Nc1ccc(S(=O)(=O)NC23CC4CC(CC(C4)C2)C3)cc1 | . | 0.0 | 18 | . | . | 0 | . | . | 30 | -6.4
49 | CCOc1ccc(CCNC(=O)CSC(=S)N2CCCC2)cc1OCC | 2.1 | 0.3 | -2 | 8 | 10 | 0 | -4 | 3 | . | -2.2
50 | N#CC/C(N)=N/Nc1nc2ccccc2nc1Cc1ccccc1 | 1.6 | -0.5 | 13 | 12 | 9 | 5 | -7 | -1 | 25 | 2.7
51 | COc1ccc(CCNC(=O)C(=O)Nc2ccc3nc4n(c(=O)c3c2)CCCCC4)cc1OC | -1.1 | -0.8 | 0 | 9 | 6 | -7 | -3 | 14 | 0 | 2.0
52 | CCOC(=O)C1[C@H]2C(=O)N(C(C)c3ccc(OC)cc3)C[C@]23C=C[C@H]1O3 (stereo partly drawn) | . | 0.2 | -6 | 0 | . | 2 | 31 | . | -3 | -0.8
53 | COc1ccccc1CN1CCCC(C(=O)N2CCCCC2)C1 (stereo not drawn) | 0.3 | 0.1 | -8 | 4 | 5 | -4 | 0 | 17 | -12 | 4.1
54 | COc1cc(C(=O)NC(CCSC)C(=O)OCC(=O)NC(=O)C2CCCCC2)cc(OC)c1OC (stereo not drawn) | -2.3 | 0.6 | 4 | -18 | 8 | 9 | -15 | 9 | -9 | 4.6
55 | NC(=O)NCCC1=CCCCC1 | . | -0.9 | -5 | -7 | . | -3 | -8 | . | -2 | 1.7
56 | Cn1c(C(=O)O)c(S(=O)(=O)c2ccc(Cl)cc2)c2ccccc21 | -0.9 | -0.3 | -5 | -6 | 13 | 4 | -2 | 9 | -1 | -0.7
57 | O=[N+]([O-])c1cccc(-c2cn3nc(-c4ccccc4)c(-c4ccccc4)nc3n2)c1 | . | 1.8 | 98* | 7 | . | -6 | -8 | . | -1 | 3.0
